# From PubChem
# DUX4 inh – blocks DUX4-driven transcriptional activation; 293T-iDUX4 ZSCAN4-Gaussia luciferase reporter, 24 h; active compounds read low; activity change, negative = inhibition, % (no concentration beside the values); hit rate 0.8% among 37,000;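 active means -10% or lower and over 25 points stronger than a control reporter; inconclusive means -10% or lower with a smaller gap; inactive means above -10%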;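 further: 0% = median of neutral control wells and -100% = median of positive control wells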
# DUX4 inh difference – also measured in DUX4 inh; calls as there; Gaussia minus Italica difference, %; measured here: selective DUX4 reporter inhibition;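 worked out from the two reporters; negative = selective loss of the DUX4 reporter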
# DUX4 inh control – second read-out of DUX4 inh, no call of its own (marks repeat the call); activity change, negative = inhibition, %; measured here: Italica tet-on control reporter;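 0 = neutral control and -100 = positive control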
# Starred values were filed as active, the others as inactive; u = inconclusive; x = not tested or not shown; & = joins results of further samples. Only part of the results is shown. The share of hits here may be higher or lower than overall.
DUX4 inh	DUX4 inh difference	DUX4 inh control	Structure
-1	1	-2.4	C[C@@H]1CCCCO[C@@H](CN(C)Cc2ccc3c(c2)OCO3)[C@@H](C)CN([C@@H](C)CO)C(=O)c2cc(N(C)C)ccc2O1
-2	-2	-0.2	N#C[C@@H]1[C@@H](c2ccc(C#CC3CCCC3)cc2)[C@@H](CO)N1S(=O)(=O)c1ccccc1
-31*	-28*	-3.0*	Cc1cccc(-c2ccc([C@@H]3[C@H]4CN(CCC(F)(F)F)CCCCN4[C@H]3CO)cc2)c1
0	0	-0.9	C[C@H](CO)N1C[C@H](C)[C@H](CN(C)S(C)(=O)=O)Oc2c(NC(=O)Nc3ccc4c(c3)OCO4)cccc2C1=O
-7	-5	-1.9	COCC(=O)N1CCCCN2[C@H](CO)[C@H](c3ccc(C#Cc4ccccc4)cc3)[C@H]2C1
-1	-5	4.6	C=C(C)C[C@H]1CCn2nncc2COCCNC1=O
0	3	-2.3	O=C(N[C@@H]1CC[C@H](CCn2cc(C3CC3)nn2)O[C@@H]1CO)c1cccnc1
-1	-1	0.1	CCC(=O)N1C[C@@H](C)[C@@H](OC)CN(C)C(=O)c2cc(NC(=O)c3cc(C)on3)ccc2OC[C@@H]1C
12	7	5.7	CO[C@H]1CN(C)C(=O)c2cc(NS(=O)(=O)c3cn(C)cn3)ccc2OC[C@H](C)N(CCC(F)(F)F)C[C@@H]1C
-2	-4	2.4	C[C@@H]1CN([C@H](C)CO)C(=O)c2cc(NC(=O)CCCN(C)C)ccc2O[C@@H](C)CCCCO[C@H]1CN(C)S(=O)(=O)c1ccc(Cl)cc1
1	-1	1.7	CC(=O)N1[C@H](CO)[C@H]2c3ccccc3N(S(=O)(=O)c3ccccc3F)C[C@H]21
12	10	2.4	COCC(=O)N1CC[C@H]2[C@H](CO)Nc3ccc(-c4ccc(C(=O)N(C)C)cc4)cc3[C@H]21

# (more compounds)
DUX4 inh	DUX4 inh difference	DUX4 inh control	Structure
u	x	x	O=C(Cc1ccccn1)N1CC(=O)N2[C@H](CO)[C@@H](c3ccc(C#CCC4CCCC4)cc3)[C@@H]2C1
2	3	-0.6	CCC(=O)N1CC[C@@H]2[C@H](CO)Nc3ccc(C#Cc4cccnc4)cc3[C@@H]21
4	4	0.2	O=C(c1cnccn1)N1CC(=O)N2[C@@H](CO)[C@H](c3ccc(-c4ccccc4)cc3)[C@@H]2C1
-3	1	-3.4	CO[C@@H]1CN(C)C(=O)c2ccc(NC(=O)CC(F)(F)F)cc2OC[C@H](C)N(C(=O)c2ccccc2F)C[C@H]1C
u	x	x	OC[C@@H]1[C@@H](c2ccccc2)C2(CN(Cc3ccc4c(c3)OCO4)C2)N1Cc1ccccc1
6	3	2.9	CCC(=O)Nc1ccc2c(c1)C(=O)N(C)C[C@H](OC)[C@@H](C)CN(C(=O)Cc1cccnc1)[C@H](C)CO2
14&12	20&17	-6.4&-4.8	COc1ccccc1-c1ccc(C2[C@H]3CNC[C@@H]2N3S(=O)(=O)c2ccccc2C)cc1 (stereo partly specified)
-1	-4	3.5	CCCC#Cc1cnc2c(c1)C(=O)N([C@H](C)CO)C[C@H](C)[C@H](CN(C)S(=O)(=O)c1cccc(OC)c1)O2
-6	-5	-0.7	CN1[C@@H]2c3ccc(-c4ccccc4F)c(=O)n3C[C@H]1[C@H](CO)[C@H]2C(=O)NCc1ccccn1
5	6	-0.3	O=C1[C@@H](Cc2ccc(C(F)(F)F)cc2)CCn2cc(nn2)COC[C@@H]2CCCCN12
-4	-9	5.2	CCCNC(=O)N1C[C@@H](C)[C@@H](OC)CN(C)C(=O)c2cc(NS(=O)(=O)CC(F)(F)F)ccc2OC[C@H]1C
1	-1	2.5	O=C(C[C@H]1C=C[C@@H](NC(=O)C2CCC2)[C@H](CO)O1)NC1CCCCC1

# (listing goes on)
DUX4 inh	DUX4 inh difference	DUX4 inh control	Structure
1	-2	3.4	CN(C)CC(=O)N1[C@H](C#N)[C@@H](c2ccc(-c3ccc(C(=O)N(C)C)cc3)cc2)[C@@H]1CO
0	-2	1.3	NCC[C@H]1CC[C@@H](NC(=O)NC2CCCCC2)[C@H](CO)O1
-4	-1	-2.7	C/C=C/c1ccc([C@H]2[C@@H](CO)N(C(=O)CC)[C@H]2CN(C)C(=O)C2CC2)cc1
-3	-2	-1.6	CN1C(=O)c2cc(NC(=O)c3cscn3)ccc2OC[C@H]2O[C@@H](CC(=O)NCC3CC3)CC[C@H]21
u	x	x	OC[C@H]1[C@@H](c2ccc(-c3ccc(F)cc3)cc2)[C@H]2CN(Cc3cccnc3)CCCCN21
0	-7	7.4	O=C(C[C@H]1CC[C@@H]2[C@H](COC[C@@H](O)CN2C(=O)Nc2ccc(F)cc2)O1)NC1CCC1
0	-1	0.8	CCCN1C[C@H](C)[C@H](OC)CN(C)C(=O)c2cc(NS(=O)(=O)c3ccccc3)ccc2OC[C@H]1C
-3	-7	4.5	C[C@H]1CN([C@@H](C)CO)S(=O)(=O)c2ccc(C#Cc3ccccc3F)cc2O[C@H]1CN(C)C(=O)c1ccc2c(c1)OCO2
-2	-1	-0.2	CN(C)C(=O)c1ccc(-c2ccc([C@H]3[C@H](C#N)N(C(=O)C4CC4)[C@H]3CO)cc2)cc1
-6	3	-9.0	N#C[C@H]1[C@H](c2ccccc2C2=CCCCC2)[C@@H](CO)N1C(=O)Cc1ccncc1
5	11	-6.1	CC=Cc1ccc2n(c1=O)C[C@H]1[C@H](CO)[C@@H](C(=O)NCCC)[C@@H]2N1C(=O)C1CCC1 (mixture of isomers)
1	-3	4.4	COc1ccccc1-c1ccc2c(c1)O[C@@H](CN(C)C(=O)c1ccncc1)[C@@H](C)CN([C@H](C)CO)S2(=O)=O

# Next section:
DUX4 inh	DUX4 inh difference	DUX4 inh control	Structure
-3	5	-8.2	COc1ccccc1CNC(=O)C[C@@H]1C[C@H]2c3cc(NC(=O)C4CCC4)ccc3O[C@H]2[C@H](CO)O1
2	1	1.3	C[C@@H]1CCCCO[C@@H](CN(C)Cc2ccc3c(c2)OCO3)[C@H](C)CN([C@@H](C)CO)C(=O)c2cc(NS(=O)(=O)c3cn(C)cn3)ccc2O1
7	8	-1.4	O=C(C[C@H]1C[C@H]2c3cc(NC(=O)c4cccnc4)ccc3O[C@H]2[C@@H](CO)O1)NCC(F)(F)F
0	-2	1.5	CCc1cnc(N2[C@H](C#N)[C@H](c3ccc(C#CC(C)C)cc3)[C@@H]2CO)s1
-2	0	-2.6	Cc1noc(C)c1NC(=O)N(C)C[C@@H]1Oc2ccc(N(C)C)cc2CC(=O)N([C@@H](C)CO)C[C@H]1C
20	15	4.9	Cc1cccc(-c2ccc([C@@H]3[C@H]4CN(C(=O)c5ccncc5)CCCCN4[C@H]3CO)cc2)c1
u	x	x	COc1cccc(S(=O)(=O)Nc2ccc3c(c2)[C@H]2C[C@H](CC(=O)NCCc4ccccc4)O[C@@H](CO)[C@H]2O3)c1
27	0	27	CN(C)CC#Cc1ccc([C@H]2[C@@H](CO)N3CCCCN(CC4CCOCC4)C[C@H]23)cc1
2	0	1.2	Cc1ccccc1-c1ccc2c(c1)O[C@H](CN(C)C(=O)Nc1ccc(C(F)(F)F)cc1)[C@@H](C)CN([C@@H](C)CO)S2(=O)=O
-7	-10	3.4	O=C(C[C@@H]1C[C@@H]2c3cc(NS(=O)(=O)c4ccccc4)ccc3O[C@@H]2[C@H](CO)O1)N1CCOCC1
0	0	-0.1	CCC(=O)N(C)C[C@@H]1[C@@H](c2ccccc2)[C@H](CO)N1Cc1cccnc1
4	0	4.4	CCC(=O)N1[C@H](CO)[C@H](c2ccc(C3=CCCCC3)cc2)[C@H]1CNC1CCCC1

# More records follow:
DUX4 inh	DUX4 inh difference	DUX4 inh control	Structure
-1	-5	4.0	O=C(C[C@H]1C[C@@H]2c3cc(NC(=O)C4CCC4)ccc3O[C@@H]2[C@H](CO)O1)NCc1cccc(F)c1
-1	1	-1.3	CNC[C@@H]1Oc2c(NS(=O)(=O)c3c(C)noc3C)cccc2C(=O)N([C@H](C)CO)C[C@H]1C
12	6	5.5	O=C(C[C@H]1CC[C@@H]2[C@H](COC[C@@H](O)CN2Cc2cccc(F)c2)O1)NCc1ccncc1
-3	0	-2.6	C[C@H](CO)N1C[C@H](C)[C@@H](CN(C)C(=O)Cc2ccccc2)OCCCC[C@H](C)Oc2ccc(NS(C)(=O)=O)cc2C1=O
0	4	-3.1	CCC(=O)N1C[C@@H](C)[C@@H](OC)CN(C)C(=O)c2cc(NC(=O)c3cc(C)on3)ccc2OC[C@H]1C
-3	-1	-2.6	CC(C)NC(=O)N(C)C[C@@H]1Oc2ncc(-c3ccccc3F)cc2C(=O)N([C@@H](C)CO)C[C@H]1C
0	-1	0.5	O=C(NCc1ccccn1)[C@H]1[C@H](CO)[C@H]2Cn3c(cccc3=O)[C@@H]1N2CC1CCCCC1
5	0	5.8	O=C(C[C@H]1CC[C@H]2[C@@H](COC[C@H](O)CN2C(=O)Nc2cc(Cl)cc(Cl)c2)O1)N1CCOCC1
4	-1	5.4	CN(C)CC(=O)Nc1ccc2c(c1)[C@@H]1C[C@@H](CC(=O)NCCc3ccccc3)O[C@@H](CO)[C@@H]1O2
-2	-1	-1.2	CC(C)(C)[S@](=O)N1Cc2cc(C(=O)NC3CCC3)nc(-c3cccc(Br)c3)c2[C@@H]1CCO
16&0	26&-5	-10&5.9	O=C(Nc1cc(F)ccc1F)N1[C@@H]2CNC[C@H]1C2c1ccc(-c2ccncc2)cc1 (stereo partly specified)
2	2	-0.2	C[C@H]1CN([C@@H](C)CO)C(=O)CCCn2cc(nn2)CO[C@H]1CN(C)C(=O)Nc1cccc(C(F)(F)F)c1

# A stretch of the results above, as a working copy:
DUX4 inh	DUX4 inh difference	DUX4 inh control	Structure
4	0	4.4	CCC(=O)N1[C@H](CO)[C@H](c2ccc(C3=CCCCC3)cc2)[C@H]1CNC1CCCC1
-1	-5	4.0	O=C(C[C@H]1C[C@@H]2c3cc(NC(=O)C4CCC4)ccc3O[C@@H]2[C@H](CO)O1)NCc1cccc(F)c1
-1	1	-1.3	CNC[C@@H]1Oc2c(NS(=O)(=O)c3c(C)noc3C)cccc2C(=O)N([C@H](C)CO)C[C@H]1C
12	6	5.5	O=C(C[C@H]1CC[C@@H]2[C@H](COC[C@@H](O)CN2Cc2cccc(F)c2)O1)NCc1ccncc1
-3	0	-2.6	C[C@H](CO)N1C[C@H](C)[C@@H](CN(C)C(=O)Cc2ccccc2)OCCCC[C@H](C)Oc2ccc(NS(C)(=O)=O)cc2C1=O
0	4	-3.1	CCC(=O)N1C[C@@H](C)[C@@H](OC)CN(C)C(=O)c2cc(NC(=O)c3cc(C)on3)ccc2OC[C@H]1C
-3	-1	-2.6	CC(C)NC(=O)N(C)C[C@@H]1Oc2ncc(-c3ccccc3F)cc2C(=O)N([C@@H](C)CO)C[C@H]1C
0	-1	0.5	O=C(NCc1ccccn1)[C@H]1[C@H](CO)[C@H]2Cn3c(cccc3=O)[C@@H]1N2CC1CCCCC1
5	0	5.8	O=C(C[C@H]1CC[C@H]2[C@@H](COC[C@H](O)CN2C(=O)Nc2cc(Cl)cc(Cl)c2)O1)N1CCOCC1
4	-1	5.4	CN(C)CC(=O)Nc1ccc2c(c1)[C@@H]1C[C@@H](CC(=O)NCCc3ccccc3)O[C@@H](CO)[C@@H]1O2
-2	-1	-1.2	CC(C)(C)[S@](=O)N1Cc2cc(C(=O)NC3CCC3)nc(-c3cccc(Br)c3)c2[C@@H]1CCO
16&0	26&-5	-10&5.9	O=C(Nc1cc(F)ccc1F)N1[C@@H]2CNC[C@H]1C2c1ccc(-c2ccncc2)cc1 (stereo partly specified)
2	2	-0.2	C[C@H]1CN([C@@H](C)CO)C(=O)CCCn2cc(nn2)CO[C@H]1CN(C)C(=O)Nc1cccc(C(F)(F)F)c1

# (further entries)
DUX4 inh	DUX4 inh difference	DUX4 inh control	Structure
8	5	3.8	CC=Cc1ccc2n(c1=O)C[C@@H]1[C@@H](CO)[C@H](C(=O)NCc3ccccc3)[C@H]2N1S(C)(=O)=O (mixture of isomers)
-2	1	-3.7	COc1ccc(CN2[C@@H](CO)[C@@H]3c4ccccc4N(C(=O)NC(C)C)C[C@@H]32)cc1
15	10	4.5	O=C(CC1CC1)N1CC[C@@H]2[C@H](CO)Nc3ccc(-c4ccccc4)cc3[C@@H]21
1	0	0.6	CCC(=O)Nc1ccc2c(c1)C(=O)N(C)[C@@H]1CC[C@H](CC(=O)N[C@@H](C)c3ccccc3)O[C@@H]1CO2
5	0	4.5	Cc1noc(C)c1NC(=O)N1C[C@H](O)COC[C@H]2O[C@H](CC(=O)N3CCc4ccccc4C3)CC[C@@H]21
6&21	10&15	-3.5&6.2	Cc1ccc(-c2ccc(C3[C@H]4CNC[C@@H]3N4C(=O)NC(C)C)cc2)cc1 (stereo partly specified)
6	1	5.9	C[C@H](CO)N1C[C@H](C)[C@@H](CN(C)S(=O)(=O)c2ccccc2)Oc2c(NC(=O)c3ccncc3)cccc2C1=O
7	1	6.3	CC(C)NC(=O)N1[C@H](C#N)[C@@H](c2ccc(-c3ccc(F)cc3)cc2)[C@@H]1CO
u	x	x	O=S(=O)(c1cccs1)N1CCCCN2[C@@H](CO)[C@H](c3ccc(C4=CCCC4)cc3)[C@@H]2C1
3	-1	4.1	CO[C@@H]1CN(C)C(=O)c2ccc(NS(C)(=O)=O)cc2OC[C@@H](C)NC[C@H]1C
-1	-3	2.5	CCN(C[C@@H]1[C@@H](c2ccccc2)[C@@H](CO)N1CC1CC1)C(=O)c1ccccn1
7	7	0.2	Cc1noc(C)c1NC(=O)Nc1ccc2c(c1)C(=O)N([C@@H](C)CO)C[C@@H](C)[C@H](CN(C)Cc1ccc3c(c1)OCO3)OCCCC[C@H](C)O2
4	-3	7.5	COc1ccc(C#Cc2ccc3c(c2)[C@@H]2[C@@H](CCN2S(=O)(=O)c2cccc(OC)c2)[C@@H](CO)N3C)cc1
5	4	1.3	O=C(C[C@@H]1C[C@@H]2c3cc(NC(=O)NC4CCCCC4)ccc3O[C@@H]2[C@@H](CO)O1)NCc1cccnc1
-5	-1	-4.4	Cc1noc(C)c1C(=O)N(C)C[C@@H]1OCc2ccccc2-c2c(n(C)c3ccccc23)C(=O)N([C@@H](C)CO)C[C@@H]1C
